2A firefly: lowers the firefly signal of an FMDV 2A StopGo reporter; actives 0.23% (n = 120,000); Potency, µM (highest dose often 57.5 µM), for the others: at the top dose signal change, negative = less light; AID 1745856; HEK cells with a luciferase reporter of 2A StopGo recoding; active = well fitted falling curve with a large enough effect; inconclusive = small, poorly fitted or top-dose-only effect; inactive = no such curve, though single readings can be large or run the other way; further: nearly all actives have a fitted effect of over 60% in size; overnight with compound
2A Renilla: lowers the Renilla signal of an FMDV 2A StopGo reporter. actives 0.32% (n = 120,000). AID 1745857. HEK cells with a luciferase reporter of 2A StopGo recoding. Potency, µM (highest dose often 57.5 µM), inactives show top-dose signal change, negative = less light; active means well fitted falling curve with a large enough effect; inconclusive means small, poorly fitted or top-dose-only effect; inactive means no such curve, though single readings can be large or run the other way; further: nearly all actives have a fitted effect of over 55% in size; overnight with compound
An asterisk follows results filed as active; ? = inconclusive; & = joins results of further samples; [ ] = another dose, or the depositor's remark. On the % scale 0 is the no-effect control and ±100 the full control effect; potency means the concentration at half of the fitted maximal effect. The order is random; any-hit rate near 0.55%.

Molecule | 2A firefly | 2A Renilla
Cc1cccc(NC(=O)CSc2nc3ccc(NC(=O)CCc4ccccc4)cc3s2)c1 | 5% | 4%
Nc1nn(Cc2c(F)cccc2Cl)cc1Cl | 24% | 0%
Cc1ccc2c(CN3CCN(C(=O)c4ccc(F)cc4)CC3)cc(=O)oc2c1 | -19% | -13%
COC(=O)c1ccc(Cn2nnc3sc4c(c3c2=O)CCCC4)cc1 | 0% | 4%
COc1ccc(S(=O)(=O)N(CC(=O)Nc2ccc(C)cc2)c2ccc(C)cc2)cc1OC | -8% | 0%
COc1ccc(NC(=O)Cn2c(SCc3ccc(C)cc3)nc3cccnc32)c(OC)c1 | 37%[activator] | -26%
CCOc1ccc(C(=O)Nc2ccc3nc(N(CC)CC)cc(C)c3c2)cc1 | -6% | -4%
Cc1cccc(C(=O)NCCc2nc3ccccc3n2Cc2ccc(Cl)cc2)c1 | 0% | 40%[activator]
Cc1cccc(CNC(=O)Cn2c(-c3cccs3)cc3ccccc32)c1 | 23% | -4%
CNC(=O)c1cnc2sc(N3CCC(C)CC3)nn2c1=O | 176%[activator] | 9%
O=C(NC1CC1)C1CCCN(C(=O)c2ccc3cc[nH]c3c2)C1 (stereo not drawn) | -2% | -4%
O=C(NCc1ccccc1F)C1CCN(c2nn3cc(-c4ccc(F)cc4)nc3s2)CC1 | 130%[activator] | 4%
Cc1ccc(NC(=O)Nc2nnc(C3CCCC3)s2)cc1C | 14% | -2%
Cc1c(C(=O)Nc2ccc(C(=O)O)cc2)nnn1-c1ccccc1 | ? | -7%
CCOc1ccc(NCc2cccn2-c2nnc(N3CCC(C(=O)NCc4ccc(C)cc4)CC3)s2)cc1 | -24% | 0%
N#CC(C#N)=Cc1ccc(-c2cccc(C(=O)O)c2)o1 | 180%[activator] | 19%
Cc1cccc(C)c1Nc1nc(-c2ccccc2)cs1 | 164%[activator] | 34%
CCC(=O)N1CCc2cc(Br)cc(S(=O)(=O)CCC(=O)NCCc3ccc(C)cc3)c21 | ? | 34%[activator]
O=C(Cc1cccc2ccccc12)N(Cc1ccc2cc[nH]c2c1)C1CC1 | -12% | 63%[activator]
COc1ccccc1-c1cc(NC(=O)C(C)SC)n[nH]1 (stereo not drawn) | 87%[activator] | 7%

The closing 6 entries of the part above lead into the next:
Molecule | 2A firefly | 2A Renilla
CCOc1ccc(NCc2cccn2-c2nnc(N3CCC(C(=O)NCc4ccc(C)cc4)CC3)s2)cc1 | -24% | 0%
N#CC(C#N)=Cc1ccc(-c2cccc(C(=O)O)c2)o1 | 180%[activator] | 19%
Cc1cccc(C)c1Nc1nc(-c2ccccc2)cs1 | 164%[activator] | 34%
CCC(=O)N1CCc2cc(Br)cc(S(=O)(=O)CCC(=O)NCCc3ccc(C)cc3)c21 | ? | 34%[activator]
O=C(Cc1cccc2ccccc12)N(Cc1ccc2cc[nH]c2c1)C1CC1 | -12% | 63%[activator]
COc1ccccc1-c1cc(NC(=O)C(C)SC)n[nH]1 (stereo not drawn) | 87%[activator] | 7%
COc1cccc(CNC(=O)C(NS(=O)(=O)c2cccs2)C(C)C)c1 (stereo not drawn) | -20% | 2%
Cc1ccccc1Nc1nc(C(=O)NCCCN2CCOCC2)cs1 | -1% | -17%
CCOc1ccc(-c2oc3cc(Cl)ccc3c(=O)c2O)cc1OC | -10% | -1%
CCOC(=O)c1ccc(N2C(=O)c3[nH]nc(-c4ccc(C)cc4)c3C2c2cccc(F)c2)cc1 (stereo not drawn) | ? | ?
COc1nc2cc(C)c(C)cc2nc1C(=O)Nc1ccc(C)cc1 | 11% | -4%
C/C(=N/Nc1ccc(F)cc1F)c1ccc(Cl)c(Cl)c1 | 51%[activator] | 18%
O=S(=O)(c1ccc(Cl)cc1)c1nc(-c2cccs2)oc1SCc1ccccc1F | 8% | 333%[activator]
CC(=O)c1ccc(NC(=O)CSc2ccc3nc(-c4ccccc4)cn3n2)cc1 | 21% | -6%
CC1=C/C(=N/N=C(c2ccccc2)c2ccccc2)CC1 | 0% | 14%
CC(=O)c1ccc(NC(c2ccc(F)cc2)c2nnc(-c3ccccc3)o2)cc1 (stereo not drawn) | -15% | -6%
CSCCCNC(=S)NCC(C)(C)N1CCOCC1 | -7% | 4%
COc1ccc(CNC(=O)c2nnn(CC(=O)Nc3cc(C)cc(C)c3)c2N)cc1 | -2% | -13%
Cc1ccc(OCC(=O)Nc2ccc3nc(SCC(=O)Nc4ccc(C)cc4C)sc3c2)cc1 | -11% | -9%
Cc1ccc(Cn2cnc3c2c(=O)n(C)c(=O)n3C)cc1 | 7% | 5%
O=S(=O)(Nc1ccc(Cl)c(N2CCCS2(=O)=O)c1)c1ccccc1 | -6% | 70%[activator]
CCN(CC)S(=O)(=O)c1ccc(=O)n(CC(=O)c2c[nH]c3ccccc23)c1 | -8% | 7%
Cc1cc2c(cc1NS(=O)(=O)c1ccc(NC(=O)CC(C)C)cc1)n(C)c(=O)c(=O)n2C | ? | 70%[activator]
Cc1cccc(NC(=O)CCC2CCCCC2)c1 | 13% | 8%
CC(=O)N1CCc2c(sc3c2c(=O)n(Cc2ccccc2)c(=O)n3Cc2cc(C)ccc2C)C1 | -14% | -8%
Cc1ccc(S(=O)(=O)Nc2cccc(-c3cn4cccc(C)c4n3)c2)c(C)c1 | 8% | 183%[activator]

Molecule | 2A firefly | 2A Renilla
CCc1ccccc1NC(=O)C(CC)CC | -4% | 0%
Cc1noc(NS(=O)(=O)c2ccc(NC(=O)c3cc(=O)c4ccccc4o3)cc2)c1C | -9% | -16%
C[C@H](O)[C@@H]1CN2CCc3c([nH]c4c(-c5ccccc5)cccc34)[C@@H]2C[C@@H]1N(C)C(=O)c1ccco1 | -4% | -8%
COc1ccc(N2CCN(Cc3cc(=O)oc4ccc(OC)cc34)CC2)cc1 | -20% | -6%
O=C(COc1ccccc1F)Nc1ccc2nc(SCC(=O)N3CCCC3)sc2c1 | ? | 23%
CN1CCC(N(C)CCN(C)C(=O)Nc2ccc(C(F)(F)F)cc2)CC1 | 2% | 1%
CCOC(=O)N1CCN(Cc2nc3cc(NC(=O)c4ccc(OC)cc4)ccc3n2C(C)C)CC1 | -17%&0% | -16%&1%
CCOC(CNC(=O)CS(=O)Cc1nc(-c2cccc(OC)c2)oc1C)OCC (stereo not drawn) | 9% | -2%
Cc1cc(F)ccc1NC(=O)C(c1ccccc1)N1Cc2ccccc2C1=O (stereo not drawn) | -9% | 146%[activator]
CC(=O)Nc1ccc(/C(C)=N/NC(N)=S)cc1 | 33% | 10%
CCN(CC)CCNC(=O)COc1ccc(OC)cc1 | -12%[11.5 µM] | -9%
O=C(OCC(=O)N1CCCc2ccccc21)c1ccccc1NS(=O)(=O)c1ccc(F)cc1 | -2% | 58%[activator]
COC(=O)c1ccc(/C=N/OCc2ccc(Cl)c(Cl)c2)cc1 | -6% | -2%
COc1ccc(-c2cc(C)no2)cc1S(=O)(=O)N1CCN(c2ccc(C(C)=O)cc2)CC1 | -9% | 0%
Cc1ccc(CSc2ncc(Cl)c(C(=O)Nc3nc4ccc(C)cc4s3)n2)cc1 | -19% | -7%
Cc1ccc(F)cc1NC(=O)c1nn(CC(C)C)c(=O)c2ccccc12 | -3% | -5%
CCOC(=O)c1c(C)[nH]c(C)c1S(=O)(=O)N1CCCC(C(=O)N2CCN(c3cccc(Cl)c3)CC2)C1 (stereo not drawn) | -8% | 1%
Cn1c(=O)c(=O)n(C)c2cc(N3CCCC3)c(NC(=O)c3ccc(C(C)(C)C)cc3)cc21 | -4% | -9%
COc1ccc(NC(C)=O)cc1NC(=O)CCn1cnc2c1c(=O)n(C)c(=O)n2C | 0% | -5%
Cc1cccc(NC(=O)c2ccc3[nH]c(C)cc(=O)c3c2)c1 | 44%[activator] | 14%

Molecule | 2A firefly | 2A Renilla
Cc1ccc(-c2csc(Nc3ccccc3Cl)n2)cc1 | 167%[activator] | -3%
CCOC(=O)c1c(C)oc2nc(C)nc(NCC3CCN(Cc4ccc(Cl)cc4)CC3)c12 | -19% | -13%
O=C(O)C(c1c[nH]c2ccccc12)N1CCN(c2nsc3ccccc23)CC1 (stereo not drawn) | 1% | -1%
CS(=O)(=O)NC(=O)c1ccc(Cl)cc1F | 1% | -7%
Cc1ccc2cccc(OCc3nnc(SCC(=O)O)n3C)c2n1 | -6% | -8%
CN(C)c1ccc(C(CNS(=O)(=O)c2ccc(Cl)cc2)N2CCCC2)cc1 (stereo not drawn) | 4% | -9%
O=C(N1CCCCC1)N1CCN(Cc2nc(C3CC3)no2)CC1 | 85%[activator] | 0%
COC(=O)c1ccc(NC(=O)CC2C(=O)N(c3ccccc3)C(=O)N2Cc2ccco2)cc1 (stereo not drawn) | 17% | 62%[activator]
O=C(CNC(=O)c1ccccc1F)OCc1cc(=O)n2ccsc2n1 | -8% | 1%
COc1ccc(NC(=O)c2ccc3c(c2)NC(=O)CCS3)cn1 | 18% | -18%
CCC(Cn1nnc2ccccc2c1=O)NC(=O)Nc1ccc2c(c1)OCCO2 (stereo not drawn) | 157%[activator] | 38%[activator]
Cc1ccc(Nc2nc(CN3CCN(S(=O)(=O)c4ccc(F)c(F)c4)CC3)cs2)cc1 | ? | ?
COc1ccc(N(Cc2cc3cccc(C)c3[nH]c2=O)C(=O)c2cccc(Cl)c2)cc1 | 4% | 0%
CCCCc1ccc(NC(=O)COc2ncnc3ccccc23)cc1 | 14% | 0%
Cc1cc(C)cc(OCCCn2c(CCNC(=O)C3CCCCC3)nc3ccccc32)c1 | -3% | -2%
COc1ccc(NC(=O)NCc2nc(-c3ccc(OC)cc3)oc2C)cc1 | 0% | -2%
CCOc1cc(C(=O)NC(CC(=O)OC)c2cccs2)ccc1OC (stereo not drawn) | 10% | 10%
CC(NC(=O)c1cccs1)C(=O)NCc1cccnc1 (stereo not drawn) | 2% | 6%
COc1ccc(CNC(=O)CCn2nc(C)c3c(C)n(-c4ccccc4)nc3c2=O)cc1OC | -16% | -5%
COc1cc(C)c(C)cc1S(=O)(=O)NCC(C)O (stereo not drawn) | -1% | 155%[activator]

Molecule | 2A firefly | 2A Renilla
CCc1ccc(NC(=O)CN2C(=O)CCSc3ccccc32)cc1 | 17% | 42%[activator]
COc1ccc(NC(=O)c2cccc(N3CCCS3(=O)=O)c2)cc1OC | 82%[activator] | -5%
CC1=C(C(=O)Nc2cc(C)on2)C(c2c(Cl)cccc2Cl)NC(=O)N1C (stereo not drawn) | 57%[activator] | -6%
CC(C)CNc1nc2c(c(=O)n(Cc3cccc(Cl)c3)c(=O)n2C)n1C | -20% | -15%
CCOC(=O)C1CCCN(C(=O)c2nn(-c3ccc(C)cc3)c(=O)c3c2c2ccccc2n3C)C1 (stereo not drawn) | -8% | -5%
O=c1c(Cl)c(Oc2cccc(F)c2)cnn1-c1ccc(C(F)(F)F)cn1 | 45%[activator] | -2%
O=C(c1ccccc1Br)N(Cc1ccc2[nH]ccc2c1)C1CC1 | 5% | 38%[activator]
Cc1ccc(/C=N/n2c(-c3ccccc3)csc2=S)cc1 | -9%[11.5 µM] | 1%
CCCCn1nc(C(=O)Nc2nc(-c3cccs3)cs2)c2ccccc2c1=O | 72%[activator] | 9%
C=CCNC(=O)NC(=O)CN(CC1CCOC1)C1CC1 (stereo not drawn) | -7% | -4%
CCC(=O)Nc1ccc(-c2nc3cc(Cl)ccc3o2)cc1 | 58%[activator] | 0%
CCC1CN(C(=O)N2CCC(C(=O)NCc3cccs3)CC2)c2ccccc2O1 (stereo not drawn) | -25% | 31%[activator]
COC(=O)c1sccc1S(=O)(=O)N(CC(=O)NCc1ccc(C)cc1)c1ccc(Cl)cc1 | -17% | 10%
Cc1ccc(CS(=O)(=O)Cc2ccc(C(=O)NCCc3ccc(Cl)cc3)o2)cc1 | 9% | 6%
Cc1[nH]c(=O)[nH]c(=O)c1C1N2CC3(C(C)C)CN1CC(C(C)C)(C2)C3=O (stereo not drawn) | -6% | -3%
COc1ccc(Nc2nc(N3CCN(C(=O)c4ccco4)CC3)nc3c2cnn3C)cc1 | 10% | 17%
CCOC(=O)c1ccccc1NC(=O)CSc1cc(C)[nH]c(=O)n1 | -18% | -6%
c1ccc(COc2ccccc2CNCC2CCNCC2)cc1 | -14% | -21%
Cc1ccc(-n2nc(C(=O)Nc3ccc(Br)cc3C)c(=O)n(C)c2=O)cc1 | -5% | -15%
COc1ccc(C(C)=O)cc1CSc1nc(NCCc2ccccc2)c2ccccc2n1 | -10% | 2%

Molecule | 2A firefly | 2A Renilla
CCOc1ccc(NC(=O)Cn2nc(SC)c(S(=O)(=O)c3ccccc3)c2N)cc1 | -12% | 22%
CC(c1nnc(-c2cccs2)o1)N(C)Cc1cccc(F)c1 (stereo not drawn) | 15% | -4%
COC(=O)c1nc(NC(=O)c2ccc(Br)cc2)n[nH]1 | 0% | -7%
O=C(OCC(=O)N1CCOCC1)c1cc2ccccc2[nH]1 | 102%[activator] | -10%
CC(C)c1ccc(/C=N/NC(=O)c2ccccc2)cc1 | 240%[activator] | 33%[activator]
O=C(CCc1ncc(-c2ccc(Cl)cc2)o1)N1CCCC(O)C1 (stereo not drawn) | 142%[activator] | -1%
O=Cc1ccc(OCC2CC2)c2ccccc12 | ? | 5.6µM*
Cc1cc(C)c(Cn2c(=O)n(CCCCCC(=O)NCc3ccc4c(c3)OCO4)c(=O)c3sccc32)c(C)c1 | 15% | ?

Assay outcomes: PubChem, National Center for Advancing Translational Sciences (NCATS)
